H5N1 antiviral = antiviral screen in MDCK cells, H5N1 avian flu. inhibition, % at 50 µM. cytopathic effect, luminescence, 72 h; hits give high values; no value below 0 was filed and about half of the inactive calls have no number; reference of the scale not given here. 96,000 compounds, 0.07% hits; in the data active = inhibition above about 25%
* hit, by the source's call. A portion of the library; the hit share may differ from the screen's.

`COC(=O)C(NC(=O)c1ccccc1C)(Nc1ncc(S(=O)(=O)c2ccc([N+](=O)[O-])cc2)s1)C(F)(F)F` (stereo not drawn) gave H5N1 antiviral inactive.
Screening OC(COc1ccc(OCc2ccccc2)cc1)CN1CCCCC1 (stereo not drawn) returned H5N1 antiviral inactive.
`O/N=C/c1cccn1-c1ccc(O)cc1` gave H5N1 antiviral inactive.
CCOc1ccc(OCCSc2nnnn2C2CCCCC2)cc1 was read as H5N1 antiviral inactive.
For O=C(CN1CCSCC1)N/N=C/c1ccc(F)cc1 the results were H5N1 antiviral inactive.
Cc1noc(NS(=O)(=O)c2ccc(NC(=O)CSc3nnc(-c4ccccc4)n3C3CCCCC3)cc2)c1C was read as H5N1 antiviral 1.0.
CCC1SC2=NC(C)=C(C(=O)OCC(C)C)C(/C=C/c3ccccc3OC)N2C1=O (stereo not drawn) was read as H5N1 antiviral inactive.
For COC(=O)c1nnn(-c2nonc2N)c1CSCCO the results were H5N1 antiviral 0.4.
`CCOC(=O)CSc1nnc(-c2ccc(S(=O)(=O)N3CCOCC3)cc2)n1-c1ccccc1` gave H5N1 antiviral 0.2.
Screening CN(C)c1ccc(NC(=O)CN2C(=O)CC(c3ccccc3)=Nc3ccccc32)cc1 returned H5N1 antiviral 0.8.
CN(CP(=O)(O)CN(C)S(C)(=O)=O)S(C)(=O)=O was read as H5N1 antiviral inactive.
For c1ccc(COc2ccc(CNCc3cccs3)cc2)cc1 the results were H5N1 antiviral 0.2.
For O=C(NCCCn1ccnc1)c1cc(-c2cccs2)on1 the results were H5N1 antiviral inactive.
`COCCn1c(C)cc2c(c1=O)C(c1ccco1)C(C#N)=C(N)O2` (stereo not drawn) gave H5N1 antiviral inactive.
`CC(C)(C)NC(=O)Cn1nnnc1-c1nonc1N` gave H5N1 antiviral 0.1.
For CC(Sc1ccc(Cl)cc1)C(=O)Nc1ccc(S(=O)(=O)N2CCOCC2)cc1 (stereo not drawn) the results were H5N1 antiviral 3.7.
`Cc1scc(C(=O)N2CCN(S(C)(=O)=O)CC2)c1-c1ccccc1` gave H5N1 antiviral 0.9.
For C1CCC(Nc2nnnn2C2CCCCC2)CC1 the results were H5N1 antiviral 0.3.
For COc1ccc(CC(=O)N2CCN(C)CC2)cc1OC the results were H5N1 antiviral inactive.
Screening COc1ccc(N(CC(=O)NCc2ccco2)S(C)(=O)=O)cc1Cl returned H5N1 antiviral 0.1.
CCCCCCS(=O)[C@H]1CS(=O)(=O)C[C@@H]1S(=O)CCCCCC (stereo partly drawn) was read as H5N1 antiviral 0.3.
CC(C)CCNc1nc2c(cc1C#N)COC(C)(C)C2 was read as H5N1 antiviral inactive.
Screening O=C(CC1C(=O)N(c2ccc(F)cc2)C(=O)N1Cc1ccccn1)Nc1ccccc1 (stereo not drawn) returned H5N1 antiviral inactive.
Cc1ccc(-c2nc(CS(=O)CC(=O)NCc3ccccc3)c(C)o2)cc1 (stereo not drawn) was read as H5N1 antiviral inactive.
Screening COc1c(O)ccc2cnn(-c3ccccc3C)c(=O)c12 returned H5N1 antiviral inactive.
Screening CC(NC(=O)C(Cc1ccccc1)NC(=O)c1ccccc1)C(=O)O (stereo not drawn) returned H5N1 antiviral 0.8.
O=C(c1ccccc1)N1CCN(S(=O)(=O)N2CCCCC2)CC1 was read as H5N1 antiviral 1.4.
Screening O=C(CCNC(=O)c1ccc(Br)o1)NC1CCCC1 returned H5N1 antiviral 1.1.
O=C(CSc1nnc(-c2ccncc2)n1C1CCCCC1)Nc1cccc(O)c1 was read as H5N1 antiviral 0.3.
COc1ccc(/C=C2/S/C(=N/N=C3\CC4CCC3(C)C4(C)C)NC2=O)cc1 (stereo not drawn) was read as H5N1 antiviral 0.8.
For O=C(c1cc(S(=O)(=O)N2CCOCC2)ccc1F)N1CCCc2ccccc21 the results were H5N1 antiviral 1.9.
`CCOC(=O)C1CCCN(C(=S)Nc2ccc(C)cc2C)C1` (stereo not drawn) gave H5N1 antiviral 0.1.
COC(=O)Cc1cc(=O)[nH]c(/N=C(\N)Nc2ccccc2)n1 was read as H5N1 antiviral inactive.
For CCCCC(=O)Nc1cccc(-c2nnc(-c3ccccc3)o2)c1 the results were H5N1 antiviral inactive.
`CCC(Sc1ccc2nnc(-c3cccnc3)n2n1)C(=O)O` (stereo not drawn) gave H5N1 antiviral 2.5.
CC(C)CCNC(=O)COc1ccc2c3c(c(=O)oc2c1)CCC3 was read as H5N1 antiviral 2.2.
For CCc1ccc(OCC(=O)NC(=S)Nc2ccc(S(=O)(=O)NC3CCCCC3)cc2)cc1 the results were H5N1 antiviral inactive.
CCC(NC(=O)OC(C)(C)C)C(=O)Oc1cc(C)cc2oc(=O)c3c(c12)CCC3 (stereo not drawn) was read as H5N1 antiviral 0.3.
`CC(=O)Oc1ccc(-c2cccc(C(=O)O)c2)cc1` gave H5N1 antiviral inactive.
Oc1sc(C=Nc2ccccc2)c2ccccc12 was read as H5N1 antiviral 0.1.
For CN(C)c1ccccc1C(=O)c1ccccc1N(C)C the results were H5N1 antiviral inactive.
CCOC(=O)CSc1nnc2c(n1)C1(C)CCC2C1(C)C (stereo not drawn) was read as H5N1 antiviral inactive.
`Cc1ccccc1-c1nc(CN2CCC(C(=O)N3CCC(C(N)=O)CC3)CC2)c(C)o1` gave H5N1 antiviral inactive.
For CCc1cc(C(=O)OC)c(NC(=O)CCC(=O)O)s1 the results were H5N1 antiviral 0.1.
Screening COc1ccc(NC(=O)Nc2ccc(F)cc2F)c(C)c1 returned H5N1 antiviral inactive.
CC(NC(=O)c1ccco1)c1ccc2c(c1)OCCO2 (stereo not drawn) was read as H5N1 antiviral 1.4.
Screening O=C(NCCCNC(=O)C(F)(F)C(F)F)C(F)(F)C(F)F returned H5N1 antiviral inactive.
Screening CC(=O)c1cc(OC(=O)c2ccncc2)ccc1OC(=O)c1ccncc1 returned H5N1 antiviral 0.4.
Screening O=c1[nH]cnc2scc(-c3ccc(F)cc3)c12 returned H5N1 antiviral inactive.
`C/C(O)=C(\C#N)c1nc2ccccc2[nH]1` gave H5N1 antiviral 8.1.
Screening O=C(CSc1nnc2c3ccccc3c3ccccc3c2n1)Nc1ccccc1F returned H5N1 antiviral 1.1.
`N#CCc1c(C#N)c(N)nc(N2CCN(S(=O)(=O)c3ccccc3)CC2)c1C#N` gave H5N1 antiviral 0.5.
`CCOC(=O)CNC(=O)c1sc2nc(C)cc(C)c2c1N` gave H5N1 antiviral 0.7.
`O=C(O)c1ccc(NC(CSCc2ccc(F)cc2)C(=O)O)c([N+](=O)[O-])c1` (stereo not drawn) gave H5N1 antiviral 1.5.
For COC(=O)c1c(N2C(=O)CCC2=O)sc2c1CCCC2 the results were H5N1 antiviral 0.6.
CCOC(=O)c1cnn(-c2ccccc2)c1NC(=O)c1cccs1 was read as H5N1 antiviral 1.6.
For C[C@H](NC(=O)NCc1cccs1)C(=O)O the results were H5N1 antiviral inactive.
For CCCCNc1cc(C)nc(N2CCOCC2)n1 the results were H5N1 antiviral 0.5.
CN1CCC2(CC1)C1CN(C)CC=C1C(C#N)=C(N)C2(C#N)C#N (stereo not drawn) was read as H5N1 antiviral 0.2.
Screening c1ccc(-n2ncc3c(NCCCN4CCOCC4)ncnc32)cc1 returned H5N1 antiviral inactive.
Screening COc1ccc(C(=O)Nc2ccc3oc(Cc4ccc(Cl)cc4)nc3c2)cc1OC returned H5N1 antiviral 0.4.
Screening N#Cc1nc(COc2ccc(-c3ccccc3)cc2)oc1NCCCN1CCOCC1 returned H5N1 antiviral inactive.
Screening COc1ccc(C2C(C#N)=C(N)OC3=C2C(=O)CC(C)(C)C3)c([N+](=O)[O-])c1OC (stereo not drawn) returned H5N1 antiviral inactive.
For CCc1c(C)nc2cc(-c3ccc(OC)c(OC)c3)nn2c1N1CCCC1 the results were H5N1 antiviral inactive.
`O=C(NCc1ccc2c(c1)OCO2)c1c(O)c2cccc3c2n(c1=O)CCC3` gave H5N1 antiviral inactive.
CC(=O)Nc1ccc(S(=O)(=O)n2cnc3cc(C)c(C)cc32)cc1 was read as H5N1 antiviral 1.4.
`CC(=O)Nc1ccc(S(=O)(=O)N2CCN(c3cc(C)ccc3C)CC2)cc1` gave H5N1 antiviral 0.1.
`CC(=O)N1CC2(C)CN(C(C)=O)CC(C)(C1)C2` gave H5N1 antiviral inactive.
O=C(Nc1ccc(N2CCOCC2)c(Cl)c1)c1ccco1 was read as H5N1 antiviral inactive.
CCOc1ccccc1Nc1ccc(C(=O)O)cc1NC(C)=O was read as H5N1 antiviral 1.8.
c1ccc(-c2csc(-n3cnnn3)n2)cc1 was read as H5N1 antiviral inactive.
O=C(c1ccccc1)N1CCCC(c2ccc(Cl)cc2)=N1 was read as H5N1 antiviral 0.9.
`O=C(c1ccc(-c2ccc(Cl)cc2)o1)N1CCN(c2ccc([N+](=O)[O-])cc2Cl)CC1` gave H5N1 antiviral 4.8.
Screening CC(=O)C1=C(O)C(=O)N(c2ccc(S(N)(=O)=O)cc2)C1c1ccc([N+](=O)[O-])cc1 (stereo not drawn) returned H5N1 antiviral 1.8.
CN(C)S(=O)(=O)c1ccc(N2CCCC2)c(C(=O)NCc2ccccc2)c1 was read as H5N1 antiviral inactive.
Screening CC(C)c1ccc(N2C(=O)NC(=O)/C(=C\c3cnc(-c4ccccc4)nc3)C2=O)cc1 returned H5N1 antiviral 0.6.
CCSc1nnc(-c2ccncc2)o1 was read as H5N1 antiviral 11.8.
Screening N#C/C(=C\N1CCN(Cc2ccc3c(c2)OCO3)CC1)c1nc2ccccc2s1 returned H5N1 antiviral 1.8.
COC(=O)c1ccc(NC(=O)CNS(=O)(=O)c2cccs2)cc1 was read as H5N1 antiviral inactive.
Screening O=C(CCn1nc(-c2ccccc2)ccc1=O)N1CCCC1 returned H5N1 antiviral 2.0.
Cn1c(O)c(C(C#N)=C2N=c3ccccc3=N2)c2ccccc21 was read as H5N1 antiviral inactive.
`CC(C)N(Cc1nc(-c2ccccc2)no1)C(=O)CN(C)S(=O)(=O)c1ccccc1` gave H5N1 antiviral 0.5.
`C/C(CC(C)(C)C1CCCCC1)=N\NC(N)=S` gave H5N1 antiviral inactive.
For CC(C)(C)C(=O)CCN1C(=O)C2(OCCO2)c2ccccc21 the results were H5N1 antiviral 1.2.
`CCN(CC)C(=O)C1CCN(Cc2cccc(OCc3ccccc3)c2)CC1` gave H5N1 antiviral 0.1.
O=C(CN1C(=O)COc2ccccc21)NCc1ccc(C(=O)O)cc1 was read as H5N1 antiviral 0.3.
C=CCNc1ncnc2c1cnn2-c1ccc(OC)cc1 was read as H5N1 antiviral 0.4.
`NC(=O)C1(N2CCCCC2)CCN(C2CC(=O)N(Cc3cccs3)C2=O)CC1` (stereo not drawn) gave H5N1 antiviral inactive.
For O=C(CCCNS(=O)(=O)c1cccc2nsnc12)NCc1ccc(Cl)cc1 the results were H5N1 antiviral 0.6.
O=C1NC2=C(C(=O)c3ccccc32)C(c2ccccc2)N1 (stereo not drawn) was read as H5N1 antiviral 0.3.
Screening O=C(Nc1ccc(Cl)cc1)Nc1cccnc1 returned H5N1 antiviral inactive.
N#Cc1ccccc1NC(=O)CSc1nccn1CCc1ccccc1 was read as H5N1 antiviral inactive.
Screening CN1CCN(c2c[nH]c(=O)[nH]c2=O)CC1 returned H5N1 antiviral inactive.
`CCCOc1cccc(NC(=O)c2cc(C)oc2C)c1` gave H5N1 antiviral inactive.
`O=S(=O)(N1CCCCC1)N1CCN(c2ccc(F)cc2)CC1` gave H5N1 antiviral inactive.
Screening CC(=O)c1ccc(N2CCN(C(=O)c3cc4c(-c5ccccc5F)nn(C)c4s3)CC2)cc1 returned H5N1 antiviral 0.4.
For O=C(Cc1ccc(S(=O)(=O)N2CCOCC2)s1)NCCC(c1ccccc1)c1ccccc1 the results were H5N1 antiviral 0.3.
`CCCS(=O)(=O)N1CCN(CCCc2ccccc2)CC1` gave H5N1 antiviral 0.1.
`O=C1CSC(c2ccccn2)N1c1ccc2ccccc2c1` (stereo not drawn) gave H5N1 antiviral inactive.
Screening CN(Cc1ccccc1)c1nc(-c2ccc([N+](=O)[O-])cc2)nc2ccccc12 returned H5N1 antiviral 0.8.
`O=C1CCCN1CC(O)CS(=O)(=O)c1ccccc1` (stereo not drawn) gave H5N1 antiviral inactive.
Screening Cc1cc2ccccc2cc1CN1CCOCC1 returned H5N1 antiviral inactive.
Screening O=C(c1ccc2c(c1)OCO2)N1CCCC(c2ccccc2)C1 (stereo not drawn) returned H5N1 antiviral inactive.
Cc1ccc(N(C(=O)C2CCC(=O)N2)C2(C(=O)NC3CCCC3)CCCCC2)cc1 (stereo not drawn) was read as H5N1 antiviral 0.5.

By substructure, those above containing a cyano group
`COCCn1c(C)cc2c(c1=O)C(c1ccco1)C(C#N)=C(N)O2` (stereo not drawn) gave H5N1 antiviral inactive.
CC(C)CCNc1nc2c(cc1C#N)COC(C)(C)C2 was read as H5N1 antiviral inactive.
`C/C(O)=C(\C#N)c1nc2ccccc2[nH]1` gave H5N1 antiviral 8.1.
`N#CCc1c(C#N)c(N)nc(N2CCN(S(=O)(=O)c3ccccc3)CC2)c1C#N` gave H5N1 antiviral 0.5.
CN1CCC2(CC1)C1CN(C)CC=C1C(C#N)=C(N)C2(C#N)C#N (stereo not drawn) was read as H5N1 antiviral 0.2.
Screening N#Cc1nc(COc2ccc(-c3ccccc3)cc2)oc1NCCCN1CCOCC1 returned H5N1 antiviral inactive.
Screening COc1ccc(C2C(C#N)=C(N)OC3=C2C(=O)CC(C)(C)C3)c([N+](=O)[O-])c1OC (stereo not drawn) returned H5N1 antiviral inactive.
Screening N#C/C(=C\N1CCN(Cc2ccc3c(c2)OCO3)CC1)c1nc2ccccc2s1 returned H5N1 antiviral 1.8.
Cn1c(O)c(C(C#N)=C2N=c3ccccc3=N2)c2ccccc21 was read as H5N1 antiviral inactive.
N#Cc1ccccc1NC(=O)CSc1nccn1CCc1ccccc1 was read as H5N1 antiviral inactive.

Assay outcomes as filed in PubChem.
